Assay outcomes as filed in PubChem.
gsp antag – antagonizes gsp, the McCune-Albright syndrome mutation. gsp-mutant cells, cAMP HTRF, 30 min; control for the full effect not named in the record. Potency, µM (titrated, usually from 76.9 µM), without a hit: top-dose activity change, negative = inhibition, most hits filed as inhibitors. 0.4% of 340,000 active; active = falling curve of any shape with a large fitted effect; inconclusive = falling curve, mostly with a smaller effect; inactive = flat or rising curve; cell line not stated here;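 also: intracellular cAMP measured with PDE inhibitor Ro 20-1724 present during compound exposure; potency is read from the fitted curve at half-maximal effect; % is scaled to controls: 0 for no effect and ±100 for the full control effect; nearly all actives have a fitted effect of over 65% in size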
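HTRF cAMP read-out (cAMP-d2 plus anti-cAMP antibody-K in lysis buffer, 30 min RT). Before lysis, cells are exposed to compounds with […] for 30 min at 37C in DPBS containing Ca/Mg, BSA and Tween 20.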
gsp agonist – agonists of gsp mutant (McCune-Albright syndrome). gsp mutant cells, cAMP HTRF, 30 min; control for the full effect not named in the record. Potency, µM (highest dose often 76.9 µM), inactives show at the top dose activation (cAMP increase), actives largely listed as activators. 0.13% of 340,000 active; active = well fitted activation curve with a large enough effect; inconclusive = small, poorly fitted or top-dose-only effect, or another doubt; inactive = no such curve, though single readings can be large or run the other way; cell line not stated here;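 also: phosphodiesterase inhibitor Ro 20-1724 added with compounds to block cAMP breakdown; potency is read from the fitted curve at half-maximal effect; nearly all actives have a fitted effect of over 60% in size; about a fifth of the inactives were tested at one dose only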
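Cells in DMEM/10% FBS with G418 were pretreated with compounds in DMSO plus […] (300 uM stock) for 30 min at 37C. cAMP was measured by HTRF (cAMP-d2 plus anti-cAMP antibody-K) after 30 min at room temperature.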
Menin MLL FP FL – menin-MLL binding inhibition, fluorescein peptide | Fluorescence polarization, fluorescein-MLL peptide displacement from menin | FP activity change, % at 61.4 µM | 290,000 tested, under 10 active; inconclusive = falling polarisation curve, or a change in total fluorescence; inactive = total fluorescence flat and polarisation flat or rising; no compound was filed as active; the % refers to the polarisation; negative = inhibition;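 also: % of control where 0% means no effect; inhibitors lower the polarisation; unlabelled MLL peptide was the positive control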
ClpP mod – qHTS Assay for Activators of ClpP | purified B. subtilis ClpP, FRET peptide cleavage, 20 min | Potency, µM (top dose mostly 57.5 µM), for inactives: at the highest dose activity change, negative = active | 1.9% of 340,000 active | ATP-dependent Clp protease proteolytic subunit (Bacillus subtilis (strain 168)), P80244; active = well fitted falling curve with a large enough effect; inconclusive = small, poorly fitted or top-dose-only effect; inactive = no such curve, though single readings can be large or run the other way; also: potency is read from the fitted curve at half-maximal effect; the source files actives as falling curves though it sought activators and does not explain the sign; nearly all actives have a fitted effect of over 65% in size; many hits overshoot -100%
Target sequence (P80244 whole entry, looked up): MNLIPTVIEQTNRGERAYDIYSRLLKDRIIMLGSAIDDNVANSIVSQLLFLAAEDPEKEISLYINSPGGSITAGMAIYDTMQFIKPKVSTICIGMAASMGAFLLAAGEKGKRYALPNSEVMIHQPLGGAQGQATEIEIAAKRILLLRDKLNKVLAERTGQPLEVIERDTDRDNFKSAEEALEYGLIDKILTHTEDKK
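Buffer: 100 mM Tris/HCl pH8, 100 mM KCl, 0.05% low protease BSA, 2.5% glycerol, 0.01% Tween-20. ClpP 10 microg/mL final; 20 min RT; delta FRET normalized to ADEP and DMSO controls.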
TRPML1 blocker – blocks the human TRPML1 channel | activity change, negative = inhibition, % (concentration not given with the values) | 0.02% of 390,000 active | Q9GZU1 | TRPML1-inducible cells, Ca2+ dye fluorescence, FDSS; active compounds read low; inhibition of EC80 agonist-evoked calcium signal; in the data active means activity change below about -50%; inconclusive means about -30% to -50%; inactive means above about -30%;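 also: stimulus is agonist 54-4 at its EC80 concentration; % is scaled to controls: 0 for no effect and ±100 for the full control effect; the text of the record puts the active cut at -80%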
Target sequence (Q9GZU1 whole entry, looked up): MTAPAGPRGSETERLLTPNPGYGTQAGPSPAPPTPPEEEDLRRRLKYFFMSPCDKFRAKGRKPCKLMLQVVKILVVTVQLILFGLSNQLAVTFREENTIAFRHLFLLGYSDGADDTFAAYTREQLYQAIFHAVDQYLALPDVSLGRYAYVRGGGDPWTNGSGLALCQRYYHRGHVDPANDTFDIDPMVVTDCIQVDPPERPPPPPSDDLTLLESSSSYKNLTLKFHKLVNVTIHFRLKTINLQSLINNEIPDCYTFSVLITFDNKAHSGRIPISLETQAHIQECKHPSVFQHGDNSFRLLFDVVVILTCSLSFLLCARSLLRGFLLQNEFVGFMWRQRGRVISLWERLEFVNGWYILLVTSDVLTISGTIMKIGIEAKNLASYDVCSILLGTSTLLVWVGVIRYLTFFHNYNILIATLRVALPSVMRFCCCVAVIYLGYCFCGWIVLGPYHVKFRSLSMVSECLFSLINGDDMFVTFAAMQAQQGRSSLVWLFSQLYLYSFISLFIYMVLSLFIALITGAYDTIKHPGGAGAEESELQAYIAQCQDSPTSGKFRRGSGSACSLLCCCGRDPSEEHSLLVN
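Tet-induced TRPML1-DL cells loaded with Ca8 no-wash calcium dye were read kinetically on FDSS. Compound addition was followed by EC80 agonist 54-4 (4 uM final); inhibition was read over 110 s.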
TRPML1 agonist – activates the human TRPML1 channel; TRPML1-expressing cells, Ca2+ dye fluorescence, FDSS; host cell line not named in the record; reference of the full effect not given here; activation, % (test concentration not listed); 0.12% of 410,000 active; AID 624414; in the data active = activation above about 50%; inconclusive = about 30% to 50%; inactive = below about 30%; also: 0% is about no effect; the text of the record puts the active cut at 80%
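Cells: TRPML1-DL, 1X Tet inducer, ~16 h at 37 degrees C/5% CO2. Dye: ABD Ca8 no-wash + quencher, 45-90 min RT. Read: 10 s baseline, compound add, 110 s agonist phase; 54-4 EC80 (4uM final), 110 s antagonist phase.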
* hit, by the source's call; ? = inconclusive; / = not tested or not shown; [ ] = another dose, or the depositor's remark.

SMILES	gsp antag	gsp agonist	Menin MLL FP FL	ClpP mod	TRPML1 blocker	TRPML1 agonist
O=C(Nc1ccc(S(=O)(=O)N2CCCC2)cc1)c1ccccc1	5.5%	-27.9%[15.4 µM]	/	/	-4.5	-0.7
COc1ccccc1C(=O)NNS(=O)(=O)c1ccc(F)cc1	4.1%	-3.3%	-2.7	/	-0.2	0.6
COc1ccc(OC)c(NC(=O)COCc2cc(-c3ccc(F)cc3)on2)c1	/	/	/	-0.8%	26.7	1.0
Cc1cccnc1NC(=O)c1ccc2nc(N)sc2c1	9.2%	8.2%	-1.0	-16.4%	64.5	-0.3
O=C(O)c1ccccc1-c1ccccc1C(=O)Nc1ccc(OC(F)(F)F)cc1	-17.6%	-26.2%	1.2	-0.6%	-0.3	-0.2
CSc1ccc(NC(=O)Cn2nnnc2-c2ccccc2F)cc1	/	/	/	1.3%	-26.2	1.9
CCOc1ccc(/C=N/NC(=O)c2cc3ccccc3cc2OC)cc1	28.2µM*	-12.3%	3.3	?	3.5	0.8
CCN1CCN(Cc2c(O)ccc3c2O/C(=C\C=C\c2ccccc2)C3=O)CC1	6.1%	?	3.0	-7.1%	-24.8	?
O=C(c1cc(-c2ccc3c(c2)OCO3)on1)N1CCN(c2ccc(F)cc2)CC1	9.6%	-5.9%	1.2	44.1%	-7.3	3.0
CN(C)c1ncnc2c1ccn2C1OC(CO)C(O)C1O (centres undefined)	4.5%	4.0%	/	-1.2%	-15.1	0.3
CC(=O)C1=C(c2ccc(C)cc2)N(C(C)=O)n2c(nnc2-c2ccccc2)S1	/	/	/	-1.2%	-28.9	1.0
COc1ccc(CONS(=O)(=O)c2ccc(NC(C)=O)cc2)cc1Cl	-18.5%	-20.8%	-0.4	-0.2%	-8.1	-0.3

Looked up above.
Under ClpP mod, `CN(C)c1ncnc2c1ccn2C1OC(CO)C(O)C1O` (centres undefined) has the entry -1.2%
Under TRPML1 blocker, `COc1ccc(OC)c(NC(=O)COCc2cc(-c3ccc(F)cc3)on2)c1` has the entry 26.7
Under TRPML1 agonist, `COc1ccc(CONS(=O)(=O)c2ccc(NC(C)=O)cc2)cc1Cl` has the entry -0.3

Next part.
SMILES	gsp antag	gsp agonist	Menin MLL FP FL	ClpP mod	TRPML1 blocker	TRPML1 agonist
CC1CCN(C(=O)CN(c2ccc3c(c2)OCCO3)S(=O)(=O)c2ccccc2)CC1	1.8%	19.9%[15.4 µM]	2.4	/	4.4	-0.3
CCCNC(=O)c1cccc(S(=O)(=O)N2CC3(C)CC2CC(C)(C)C3)c1 (centres undefined)	-6.9%	-31.3%[inhibitor]	/	0.6%	-3.1	-0.9
O=C(CCN1C(=O)c2ccccc2C1=O)Nc1cccc(F)c1	5.1%	-40.3%[inhibitor]	5.8	1.2%	-8.8	-0.4
O=C(Nc1cccc(S(=O)(=O)N2CCOCC2)c1)c1cc2c(s1)CCC2	-26.3%	3.1%	3.1	-3.1%	-7.3	1.2
COC(=O)c1ccccc1NC(=O)c1cc(-c2ccc(O)cc2)on1	2.2%	-55.9%[inhibitor]	0.8	-1.3%	30.9	0.5
COc1cccc(C(=O)NNS(=O)(=O)c2ccc(F)cc2)c1	6.9%	3.1%	-1.5	1.1%	-3.0	-0.7
COc1ccc(Cl)cc1NC(=O)C(C)OC(=O)c1ccc(NS(=O)(=O)c2ccc3[nH]c(=O)[nH]c3c2)cc1 (centres undefined)	-6.5%	-8.0%[15.4 µM]	-2.0	-8.5%	0.6	-0.3
COc1cc(C(=O)Nc2ccc(Oc3ncnc4sc(-c5ccccc5)cc34)cc2)cc(OC)c1OC	-13.0%	-8.3%	4.2	-2.6%	-7.7	0.0
Cn1c(=O)n(C)c2cc([N+](=O)[O-])c(N3CCN(S(=O)(=O)c4ccc5ccccc5c4)CC3)cc21	-19.4%	6.3%	3.2	-2.1%	0.1	0.0
CC(=O)N1CCc2cc(S(=O)(=O)NC(CC(C)C)C(=O)NCc3ccccc3)ccc21 (centres undefined)	/	/	/	0.6%	10.5	-1.0
CN(Cc1nc2ccccc2n1C)C(=O)c1ccco1	-2.7%	-25.8%	/	-0.6%	19.8	-0.3
CN(C(=O)c1ccncc1)c1nnc(-c2cccnc2)s1	11.4%	6.5%	4.8	13.8%	-0.1	0.3
COc1cccc(CN2CCNC(=O)C2CC(=O)NC2CCCCCCC2)c1 (centres undefined)	1.3%	-3.3%	/	-6.7%	-0.8	-0.1
Cc1ccc(C(=O)NCC(=O)O)o1	13.3%	-40.5%[inhibitor]	0.0	3.0%	-12.3	3.2
CCCCNS(=O)(=O)c1ccc2nc(SCC(=O)N3CC(C)OC(C)C3)[nH]c2c1 (centres undefined)	-0.8%	8.4%	4.4	-2.4%	7.8	-0.4
CC(C)(C)c1ccc(-c2nnc(-c3ccccc3NC(=O)c3cccc(C(F)(F)F)c3)o2)cc1	/	/	/	-1.8%	-7.4	0.6
c1cncc(CNc2ncnc3sc4c(c23)CCCC4)c1	-2.2%	4.3%[15.4 µM]	-0.3	0.8%	9.4	0.6
Cc1ccc(N2C(=O)c3n[nH]c(C)c3C2c2ccccc2Cl)cc1 (centres undefined)	/	/	/	-2.9%	0.6	3.3
CCn1cc(C(=O)NCc2ccc(C)o2)c2cc(OC)c(OC)cc2c1=O	23.7%	-3.7%	0.0	-9.6%	0.5	-0.3
Cc1ccc(-n2ncc3c2CCCC3NC(=O)c2ccccc2N2CCOCC2)cc1C (centres undefined)	-12.0%	?	/	-5.9%	7.6	1.0
COc1ccc(C2=NN(c3nc4ccccc4s3)C(=O)/C2=C\N(C)C)cc1	?	21.6%	9.7	-0.4%	-18.7	0.1
COc1cc(C2CC(=O)c3c(ccc4ccccc34)N2)ccc1O (centres undefined)	-14.7%	4.4%	1.0	-7.3%	-8.9	0.7
C/C(=N/NC(=O)c1cc(Cl)ccc1O)C12CC3CC(CC(C3)C1)C2	10.4%	-100.9%[inhibitor]	1.6	-16.1%	-1.8	-0.9
CC1NC(=O)N(C)[C@@H]2NC(=O)N(C)C(c3ccc([N+](=O)[O-])cc3)[C@@H]12 (some centres undefined)	5.2%	?	-0.4	0.5%	-4.7	-0.6
O=C(CNS(=O)(=O)c1ccc(Cl)cc1)OCC(=O)N1CCCc2ccccc21	-3.4%	21.6%	4.8	1.1%	-12.7	-0.3
CC(C)N=C(Nc1ccc(Cl)cc1)c1cccnc1	-1.1%	1.4%	3.5	0.1%	7.1	-0.8
Cc1ccc(C)c(Cn2c3ccccc3c3cnn(CC(=O)NC4CCCCCC4)c(=O)c32)c1	/	/	/	-8.7%	-19.0	1.4
CCN(Cc1ccccc1)C(=O)Cn1c(=O)n(-c2ccc(C)c(C)c2)c(=O)c2c(C)c(C)sc21	/	/	/	-3.3%	50.1	2.6
COc1cc(CNC(=O)C2CCC(=O)N(C3CCCCCC3)C2)cc(OC)c1 (centres undefined)	2.3%	-1.8%	0.1	1.3%	-4.1	0.4
Cc1cc(NC(=O)COC(=O)c2cccc(O)c2)no1	1.3%	-28.5%	1.4	-1.3%	23.0	3.5
CC1CCN(S(=O)(=O)c2ccc3c(c2)N(CC(=O)O)C(=O)CO3)CC1	/	/	/	0.3%	18.9	-0.4
Cc1ccc(NC(=O)c2ccco2)nc1	6.3%	6.4%	/	1.2%	-4.3	-0.6
COC(=O)C1=C(C(=O)OC)C(C(=O)OC)C(C(=O)OC)C(C(=O)OC)(C(=O)OC)C(C(=O)OC)=C1C(=O)OC (centres undefined)	12.2%	5.8%	/	6.4%	6.8	0.1
CCCS(=O)(=O)NC(=O)C1(C)CCCN(C(=O)c2c(OC)cccc2OC)C1 (centres undefined)	/	/	/	-5.1%	28.5	0.2
COc1ccc(/C=C/C(=O)Nc2cccc(N3CCOCC3)c2)cc1OC	2.1%	4.2%	2.6	-0.7%	16.4	0.8
COc1ccc(NC(=O)Cc2ccccc2F)cc1S(=O)(=O)N1CCCCC1	-24.4%	12.8%	/	1.0%	12.2	-0.3
N#C/C(=C\c1cccc(Br)c1)C(=O)N1CCCCC1	-2.9%	19.3%	4.0	/	25.0	0.3
O=C(O)C1CSC(c2coc3ccccc3c2=O)N1 (centres undefined)	-5.1%	-27.3%	?	?	3.3	0.1
CCCCOC(=O)C1CCCC(C)N1 (centres undefined)	1.0%	0.7%	-3.1	-2.6%	6.9	0.7
CCOC(=O)N/N=C/c1cc(C)n(-c2cccc3ccccc23)c1C	7.7%	-1.0%	/	7.3%	51.4	2.9
Cc1ccc(N)cc1S(=O)(=O)N(C)C	23.3%	0.5%[15.4 µM]	2.4	/	-6.6	-0.8
CC(=O)Nc1nc(C)c(C(C)=O)s1	28.8%	?	2.7	0.7%	-0.3	-0.7
O=C(Nc1cccc(Cl)c1)c1ccc(OC(=S)N2CCOCC2)cc1	2.3%	32.7%[15.4 µM]	0.6	/	-3.7	0.6
O=C(Nc1ccccc1O)c1ccc(Cl)cc1	2.5%	-1.3%	-3.1	-0.6%	-7.5	4.8
Cc1cccc(N(C)C(=O)C2CCCN2S(=O)(=O)c2cccc3nsnc23)c1 (centres undefined)	-10.5%	-22.0%	-2.7	-1.5%	0.4	0.0
CC(=O)C1N=NCC1c1ccccc1 (centres undefined)	16.3%	-10.9%	/	/	2.9	1.4
COCC(C)n1c(SCc2cc(C(=O)OC)c(C)o2)nc2ccccc2c1=O (centres undefined)	9.9%	12.0%[15.4 µM]	-1.8	/	-7.2	3.5
COc1ccccc1NC(=O)Nc1nc(CC(=O)N2CCN(c3ccccc3)CC2)cs1	-19.0%	-22.7%[15.4 µM]	/	/	5.8	3.8
Cc1ccc(NS(=O)(=O)c2cccc3nsnc23)cc1[N+](=O)[O-]	4.8%	-22.5%	2.2	-3.8%	-18.1	1.6
Cc1cccc(N(C(=O)CCC(=O)Nc2cc(C)on2)C(C(=O)NC2CCCC2)c2cccnc2)c1 (centres undefined)	-37.4%	11.5%[15.4 µM]	/	/	2.1	-0.5
Cc1nc(N2CCN(C(=O)c3cccs3)CC2)c2c3c(sc2n1)CCCC3	/	12.6%[15.4 µM]	-1.5	/	8.3	-0.2
O=C(N/N=C/c1ccccc1Cl)c1cccc(F)c1	-14.7%	6.6%	-1.0	-0.9%	-6.8	-0.1
CNS(=O)(=O)c1ccc(NC(=O)c2ccoc2C)cc1	0.6%	9.3%[15.4 µM]	7.7	/	-6.1	-0.5
CCn1c(CNc2ccccc2Cl)nnc1SCCN1CCCCC1	0.3%	-17.5%	0.1	-0.4%	3.4	-0.4
O=C(NNC(=O)c1ccc(Br)cc1)c1ccncc1	0.6%	-15.4%	1.7	1.1%	-9.9	-0.4
COc1cccc(Nc2nc3c(S(=O)(=O)c4cc(C)ccc4C)nnn3c3ccsc23)c1	/	/	/	-13.5%	19.2	0.7
